Screens from PubChem BioAssay.
Six1-Eya2 inh: blocks human Six1 binding to Eya2; Q15475+O00167; AlphaScreen GST-Six1/His-Eya2 binding, biochemical; stronger effect = lower value; control for the full effect not named in the record; activity change, % (test concentration not listed); 360,000 tested, 0.56% active; AID 651725; in the data active = activity change below about -65%; inconclusive = about -30% to -65%; inactive = above about -30%; also: % is scaled to controls: 0 for no effect and ±100 for the full control effect; compound concentration not given in the record
Target sequence (O00167 whole entry, looked up): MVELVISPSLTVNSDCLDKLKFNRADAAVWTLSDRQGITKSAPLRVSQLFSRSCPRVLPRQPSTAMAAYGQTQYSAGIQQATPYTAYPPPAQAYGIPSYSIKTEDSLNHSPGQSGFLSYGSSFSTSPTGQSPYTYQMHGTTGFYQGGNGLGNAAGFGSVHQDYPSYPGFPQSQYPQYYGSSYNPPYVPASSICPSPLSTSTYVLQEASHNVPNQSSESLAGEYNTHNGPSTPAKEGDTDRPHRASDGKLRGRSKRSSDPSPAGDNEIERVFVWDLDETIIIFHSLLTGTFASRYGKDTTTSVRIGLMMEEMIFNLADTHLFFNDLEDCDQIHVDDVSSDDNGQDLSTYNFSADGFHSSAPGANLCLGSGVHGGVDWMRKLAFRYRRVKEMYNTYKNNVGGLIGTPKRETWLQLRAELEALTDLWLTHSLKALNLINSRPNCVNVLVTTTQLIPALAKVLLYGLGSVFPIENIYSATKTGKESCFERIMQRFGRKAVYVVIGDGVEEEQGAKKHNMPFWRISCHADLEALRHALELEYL
Target sequence (Q15475 whole entry, looked up): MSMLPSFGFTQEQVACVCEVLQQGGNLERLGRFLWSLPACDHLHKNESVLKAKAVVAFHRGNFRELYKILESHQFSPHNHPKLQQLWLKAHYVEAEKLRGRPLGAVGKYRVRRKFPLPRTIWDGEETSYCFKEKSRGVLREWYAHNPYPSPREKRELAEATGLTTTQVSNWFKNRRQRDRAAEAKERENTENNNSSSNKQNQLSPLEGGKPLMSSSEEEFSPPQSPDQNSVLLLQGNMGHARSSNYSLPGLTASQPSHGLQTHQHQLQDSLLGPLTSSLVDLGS
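Homogeneous AlphaScreen proximity assay pairing GST-Six1 with His-tagged Eya2 (added as 5X mix: 250 nM and 500 nM) in 50 mM Tris pH 8.0, 300 mM NaCl, 1 mM TCEP. Glutathione donor and nickel acceptor beads; 1 h, 37 °C, dark.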
D2 PAM: human D2 receptor positive allosteric modulation; potentiation, % (test concentration not listed); P14416; DiscoveRx D2 beta-arrestin cells, luminescence, 90 min; 100% = 57 uM dopamine signal; 360,000 tested, 0.23% active; active = potentiation of 50% or more; inconclusive = 30% to 50%; inactive = 30% or less;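 also: compound concentration not given in the record; tested on top of an EC20 dose of dopamine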
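D2 cells co-treated with compound plus 50 nM dopamine (EC20) for 90 min at 37 deg C to detect potentiation. Beta-arrestin recruitment was read as enzyme-fragment luminescence after 1 h at ambient temperature. Full response was set by 57 uM dopamine.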
TRPML1 blocker: inhibitors of human TRPML1 channel | Q9GZU1 | TRPML1-inducible cells, Ca2+ dye fluorescence, FDSS; stronger effect = lower value; inhibition of EC80 agonist-evoked calcium signal | activity change, negative = inhibition, % (no concentration beside the values) | 390,000 tested, 0.02% active | AID 624415; in the data active means activity change below about -50%; inconclusive means about -30% to -50%; inactive means above about -30%;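 also: stimulus is agonist 54-4 at its EC80 concentration; % is scaled to controls: 0 for no effect and ±100 for the full control effect; compound concentration not given in the record; the text of the record puts the active cut at -80%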
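TRPML1-DL cells, Tet-induced overnight (~16 h, 37 °C) at 1,500 cells/well, were loaded with Ca8 no-wash dye plus quencher for 45-90 min at room temperature. Compounds were pinned during FDSS kinetic reading; agonist 54-4 at EC80 (4 uM final) then added.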
D2 agonist: human D2 receptor agonism in beta-arrestin assay; 360,000 tested, 0.084% active; DiscoveRx PathHunter D2 beta-arrestin, luminescence, 90 min; 100% = 57 uM dopamine signal; activation, % (no concentration beside the values); in the data active = activation above about 40%; inconclusive = about 15% to 40%; inactive = below about 15%; also: compound concentration not given in the record; the text of the record calls up to 30% inactive
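Agonist mode: compounds alone added to overnight-plated D2 PathHunter cells for 90 min at 37 C, with 57 uM final dopamine (EC100) defining full response. Beta-arrestin recruitment detected by chemiluminescent reagent, read after 1 h at ambient temperature.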
PINK1 expr mod: PINK1 expression modulation; PINK1 immunofluorescence, high-content cytometry, 24 h; Potency, µM (titrated, usually from 76.6 µM), inactives show at the highest dose activation (PINK1 increase), most hits filed as activators; 410,000 tested, 0.2% active; active = well fitted activation curve with a large enough effect; inconclusive = small, poorly fitted or top-dose-only effect; inactive = flat fitted curve, though single readings scatter; cell line not stated here;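 also: potency is read from the fitted curve at half-maximal effect; % of control where 0% means no effect; nearly all actives have a fitted effect of over 65% in size; a mitochondrial uncoupler was the plate control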
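Decision-based qHTS: stable cells, 24 h exposure to five compound concentrations, CCCP as control. Fixed cells stained for PINK1 plus nuclear, mitochondrial and cell markers, cytometer read.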
TRPML1 ag: activates the human TRPML1 channel | TRPML1-expressing cells, Ca2+ dye fluorescence, FDSS; host cell line not named in the record; reference of the full effect not given here | 410,000 tested, 0.12% active | AID 624414 | activation, % (test concentration not listed) | Q9GZU1; in the data active = activation above about 50%; inconclusive = about 30% to 50%; inactive = below about 30%; also: 0% is about no effect; the text of the record puts the active cut at 80%
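Agonist activity was taken from a 110 s kinetic Ca2+ dye read on the FDSS after pinning compounds onto TRPML1-DL cells. The cells were seeded at 1,500/well with Tet inducer, incubated about 16 h, then dye-loaded at room temperature.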
Starred values were filed as active, the others as inactive; ? = inconclusive; · = no result given; & = joins results of further samples; [ ] = another dose, or the depositor's remark.

SMILES | Six1-Eya2 inh | D2 PAM | TRPML1 blocker | D2 agonist | PINK1 expr mod | TRPML1 ag
COc1cc(CN2C(=S)NC(C)(C)CC2(C)O)cc(OC)c1 (configuration not stated) | -4 | -3 | 10 | -2.3 | 4.0% | -0.7
CN(C)C(=O)[C@H]1C[C@H]1[C@@H](O)[C@H](CO)NC(=O)[C@H](Cc1ccccc1)NC(=O)OC(C)(C)C | 2 | -8 | 9 | -2.6 | -0.4% | 0.1
COc1ccccc1N(CC(=O)NCCN1CCOCC1)S(=O)(=O)c1ccccc1 | 5 | -4 | -11 | -5.3 | -0.6% | 0.0
O=C(COC(=O)C(O)c1ccccc1)c1ccc2c(c1)OCCO2 (configuration not stated) | 11 | 2 | 10 | -1.0 | 0.6% | -1.0
O=C(Nc1ccc2c(c1)S(=O)(=O)N=C1CCCCCN12)c1ccccc1Cl | 1 | -22 | -18 | -5.8 | 1.3% | 1.6
Cc1[nH]n(-c2ccccc2)c(=O)c1C=NC1CCCCC1 | 7 | -8 | -2 | -3.2 | -0.4% | 0.0
O=C(CCCCn1c(=O)[nH]c2ccccc2c1=O)N1CCN(c2cccc(C(F)(F)F)c2)CC1 | -1 | 13 | 17 | 3.9 | -3.6% | 2.3
Cc1cc(C(F)(F)F)nc(NCc2cccnc2)n1 | 4 | 3 | 17 | -2.1 | -0.2% | 1.5
COCCNC(=O)C1(C)CCCN(CCSc2ccccc2)C1 (configuration not stated) | 3 | -2 | · | 5.3 | 3.1% | -0.7
CCc1nccn1S(=O)(=O)c1cc(C)c(OC)cc1C | 2 | -13 | -2 | -2.6 | 6.3%[38.3 µM] | -0.4
CN1C(C(=O)Nc2ccccn2)=C(O)c2sc(Cl)cc2S1(=O)=O | -2 | -6 | 2 | 3.2 | 0.1% | -0.8
Cn1c(NC(=O)c2ccc(F)cc2)c(-c2ccccn2)c(=O)c2ccccc21 | -2 | 3 | 8 | 2.7 | 0.9% | 0.6
CCOc1ccc(-c2[nH]nc3c2C(c2ccc(O)cc2)C(C#N)=C(N)O3)cc1 (configuration not stated) | -3 | 14 | 0 | 0.7 | · | 0.8
O=C(NCCOc1ccccc1)C1CCCN1C(=O)c1cccs1 (configuration not stated) | 4 | -20 | -4 | -1.3 | -0.3% | -0.9
CCC1Oc2ccccc2N(CC(=O)NCC2CCCO2)C1=O (configuration not stated) | 4 | -2 | 16 | -2.2 | 2.6% | 1.1
CCOc1cc(C(=S)N2CCC(O)CC2)ccc1OS(=O)(=O)c1ccc(Br)cc1 | -8 | 3 | 28 | 3.7 | -1.6%[38.3 µM] | 0.5
C=CCOc1ccc(/C=C/C(=O)OCC(=O)NC(C)c2ccc(F)cc2)cc1 (configuration not stated) | -2 | -4 | 7 | -1.1 | 6.7% | 8.9
CCC(=O)NCCc1cc2ccc(C)cc2[nH]c1=O | -3 | -8 | 6 | -6.6 | -0.8% | -0.6
CCCCC(CC)C(=O)NCc1ccc(F)cc1 (configuration not stated) | 2 | 8 | -3 | -1.7 | 0.7% | 0.0
Cc1ccc(-c2nnc(Nc3ccc(CC(N)=O)cc3)c3ccccc23)cc1S(N)(=O)=O | -4 | -5 | -2 | 10 | -2.3% | 1.5
CCC(=O)Nc1ccc2nc(SCCOc3ccc(C)cc3OC)sc2c1 | · | · | 37 | · | 1.2% | 2.3
COC(=O)c1c(-c2cccnc2)csc1NC(=O)c1ccc2c(c1)OCO2 | 1 | 1 | -6 | -3.2 | ? | 0.8
O=C(Nc1ccccc1C(F)(F)F)C1CCN(S(=O)(=O)c2ccccc2)CC1 | · | · | 15 | · | -1.4% | -0.5
COc1ccc(C(=O)OCC(=O)N2CC(=O)Nc3ccccc32)cc1Br | -5 | -15 | 2 | -1.2 | 1.5% | -0.2
O=C(Nc1nc2ccccc2s1)c1ccccc1 | 0 | -7 | -6 | 1.5 | -0.6% | 0.0
CC(=O)Nc1ccc(S(=O)(=O)NCCC(=O)OCCN2C(=O)c3ccccc3C2=O)cc1 | 3 | 4 | -10 | -1.6 | 6.9%[38.3 µM] | -0.1
O=C(CN1C(=O)c2cccc3cccc1c23)Nc1ccc2c(c1)OCO2 | 7 | -18 | -4 | -2.5 | · | 0.2
CCOC(=O)c1cc2c(nc1C)-c1cc(Cl)cc(Cl)c1OC2O (configuration not stated) | 6 | -7 | -1 | -3.9 | 4.7% | 1.9
O=c1c2cc(-c3ccccc3)sc2ncn1/N=C/c1ccco1 | -1 | -18 | 49 | -2.7 | -2.7% | -1.1
NC(Cc1ccc(Cl)cc1)c1csc(NC(=O)Nc2ccccc2)n1 (configuration not stated) | -7 | -4 | · | 9.9 | -1.3% | 0.3
COC(=O)[C@@]12CCCCN1[C@H](c1ccc(-c3ccc(C(C)=O)cc3)c(OC)c1)[C@@H]1C(=O)N(C)C(=O)[C@@H]12 | -8 | -14 | 8 | -3.6 | 2.2% | -0.2
CCN1C(=O)C2C(c3cccc(F)c3)NC(C)(C(=O)OC)C2C1=O (configuration not stated) | -2 | -2 | 36 | -3.3 | -1.5% | -0.2
COc1ccc(-c2nc3c(c(SCC(=O)Nc4cccc(O)c4)n2)Cc2c(CO)cnc(C)c2O3)cc1 | -19 | 13 | 18&11 | 15 | 5.4%&4.4% | 1.4&0.4
COc1ccc(C(=O)CSc2ncnc3nc[nH]c23)cc1 | 1 | -3 | 7 | -3.3 | -0.7% | 0.4
O=C(Cn1c(=O)n(Cc2ccc(F)cc2)c(=O)c2sc3ccccc3c21)NCc1ccccc1Cl | · | · | -13 | · | 0.7% | -0.3
C/C(CCc1ccc2c(c1)OCO2)=N\N=C1\NC(=O)CC(C(=O)Nc2ccccc2)S1 (configuration not stated) | -1 | -15 | -4 | -1.4 | 1.5%[38.3 µM] | -0.7
CCOc1ccc(OCC)c(S(=O)(=O)n2cc(C)nc2CC)c1 | 4 | -3 | 30 | -4.0 | 0.2% | 2.2
COc1ccc(CC(=O)Nc2cccc(C(C)=O)c2)cc1S(=O)(=O)N1CCOCC1 | -2 | -7 | -19 | -2.7 | 0.8% | -0.3
CC(=O)N1CCOCC1c1cc(C(=O)Nc2ccccc2)no1 (configuration not stated) | 1 | -2 | · | -4.0 | 0.8% | -0.3
CCc1nc(SCC(=O)Nc2nnc(CC)s2)c2c(C)c(C)sc2n1 | 9 | -3 | 1 | 0.9 | · | 0.7
CCn1c(O)c(C=C2N=c3ccccc3=N2)sc1=S | 1 | -1 | -7 | 2.6 | 6.4% | -0.1
CCOC(=O)CNc1ccc2c(c1)OCO2 | -4 | -15 | 0 | -4.9 | -0.5% | 0.9
COc1ccc(C(=O)N2CCOC2CNC(=O)C(=O)NCc2ccc(F)cc2)cc1 (configuration not stated) | -20 | -4 | -5 | 2.5 | 3.9% | 0.6
C=CCn1c(COc2ccc3c(c2)CCCC3)nnc1SCC(=O)Nc1cccc(SC)c1 | -15 | -7 | -25 | -3.8 | 1.8%[38.3 µM] | 2.8
COc1ccccc1-n1cnc2c(c1=O)c1nc3ccccc3nc1n2CCc1ccccc1 | 10 | -4 | 2 | -3.1 | 25% | 0.7
O=C(COC(=O)CCCOc1ccc(Cl)cc1Cl)NCc1ccccc1 | 5 | -26 | -15 | -5.5 | 1.3% | 1.7
Cc1cc2c(o1)CC(C)(C)CC2=O | 2 | 11 | 2 | 2.7 | -0.1% | 0.2
CC(=O)n1cc([C@@H]2C=C(C(=O)O)O[C@H](OCc3ccc(CO)cc3)C2)c2ccccc21 | -11 | -5 | 7 | -2.9 | -1.1% | -0.7
Cc1ccc(N(C(=O)c2snc(C(N)=O)c2N)C(C(=O)NC2CCCC2)c2ccncc2)cc1 (configuration not stated) | 11 | -1 | 0 | -2.1 | 3.6% | 1.9
O=C(Nc1cccc(NC(=O)c2c(F)cccc2F)n1)c1c(F)cccc1F | -13 | 1 | 8 | -3.6 | 2.1% | -0.5
O=C(c1ccc(Cl)c(S(=O)(=O)N2CCOCC2)c1)N1CCN(c2ccccc2)CC1 | -6 | -1 | 24 | 3.4 | 1.1% | -0.2
Cc1ccc(C)c(NC(=O)Cn2c(=O)n(CC3CCCO3)c(=O)c3ccccc32)c1 (configuration not stated) | · | · | -15 | · | 0.2% | -0.9
CC12CCC(C(=O)N(NC(=O)c3ccccc3Cl)C1=O)C2(C)C (configuration not stated) | 6 | -8 | -1 | -7.8 | -0.7% | 0.2
Cc1cccc(NC(=O)CC2SC(=NC3CCCCC3)NC2=O)c1 (configuration not stated) | 0 | -39 | -6 | -2.3 | -1.7% | -0.1
CN(c1ccc(C(=O)NCCc2ccccc2)cc1)S(C)(=O)=O | 2 | -3 | -7 | -4.0 | -0.4%[38.3 µM] | -0.8
Cc1cc(NC(=O)CSc2nc(-c3ccco3)cc(C(F)(F)F)n2)n(-c2ccccc2)n1 | 9 | -2 | -18 | -1.5 | 7.6% | -1.1
CC(C)NCC(O)COCCOc1ccc(Br)cc1 (configuration not stated) | 1 | -7 | -17 | 1.6 | -0.4% | 0.1
CCOc1ccc(C(=O)NCCc2sc3nc(-c4ccc(Cl)cc4)nn3c2C)cc1OCC | · | · | 7 | · | 3.9% | 1.7
COC(=O)c1ccc(Cc2ccc(C(=O)OC)o2)o1 | -4 | -19 | -2 | -0.2 | -1.6%[38.3 µM] | 0.0

In the list so far, these have a Cl atom:
SMILES | Six1-Eya2 inh | D2 PAM | TRPML1 blocker | D2 agonist | PINK1 expr mod | TRPML1 ag
O=C(Nc1ccc2c(c1)S(=O)(=O)N=C1CCCCCN12)c1ccccc1Cl | 1 | -22 | -18 | -5.8 | 1.3% | 1.6
CN1C(C(=O)Nc2ccccn2)=C(O)c2sc(Cl)cc2S1(=O)=O | -2 | -6 | 2 | 3.2 | 0.1% | -0.8
CCOC(=O)c1cc2c(nc1C)-c1cc(Cl)cc(Cl)c1OC2O (configuration not stated) | 6 | -7 | -1 | -3.9 | 4.7% | 1.9
NC(Cc1ccc(Cl)cc1)c1csc(NC(=O)Nc2ccccc2)n1 (configuration not stated) | -7 | -4 | · | 9.9 | -1.3% | 0.3
O=C(Cn1c(=O)n(Cc2ccc(F)cc2)c(=O)c2sc3ccccc3c21)NCc1ccccc1Cl | · | · | -13 | · | 0.7% | -0.3
O=C(COC(=O)CCCOc1ccc(Cl)cc1Cl)NCc1ccccc1 | 5 | -26 | -15 | -5.5 | 1.3% | 1.7
O=C(c1ccc(Cl)c(S(=O)(=O)N2CCOCC2)c1)N1CCN(c2ccccc2)CC1 | -6 | -1 | 24 | 3.4 | 1.1% | -0.2
CC12CCC(C(=O)N(NC(=O)c3ccccc3Cl)C1=O)C2(C)C (configuration not stated) | 6 | -8 | -1 | -7.8 | -0.7% | 0.2
CCOc1ccc(C(=O)NCCc2sc3nc(-c4ccc(Cl)cc4)nn3c2C)cc1OCC | · | · | 7 | · | 3.9% | 1.7
